Screens as filed in PubChem BioAssay.
Cruzain Triton = inhibitors of Trypanosoma cruzi cruzain with detergent; P25779; purified cruzain, Z-FR-AMC fluorescence, 0.01% Triton; Potency, µM, inactives show max response, negative = inhibition, most hits filed as inhibitors; 200,000 tested, 0.43% active; active = well fitted curve in the direction sought with a large enough effect; inconclusive = small, poorly fitted or top-dose-only effect, or another doubt; inactive = no such curve, though single readings can be large; an effect the other way counts as inactive or inconclusive;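 also: plate controls were neutral wells for no effect and buffer without enzyme for full effect; nearly all actives have a fitted effect of over 40% in size; top concentration of the series not given in the record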
Target sequence (P25779 123-467 limits assumed): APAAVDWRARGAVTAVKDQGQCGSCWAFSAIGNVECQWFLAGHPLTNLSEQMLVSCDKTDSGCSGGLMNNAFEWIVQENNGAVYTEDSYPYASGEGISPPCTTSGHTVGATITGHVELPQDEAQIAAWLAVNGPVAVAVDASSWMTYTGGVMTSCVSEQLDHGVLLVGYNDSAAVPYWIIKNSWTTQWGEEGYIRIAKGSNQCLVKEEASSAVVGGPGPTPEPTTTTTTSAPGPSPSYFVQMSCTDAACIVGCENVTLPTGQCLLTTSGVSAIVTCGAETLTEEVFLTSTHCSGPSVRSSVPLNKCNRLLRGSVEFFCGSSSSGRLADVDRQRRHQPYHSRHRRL
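Compounds were screened in titration against cruzain (1.5 nM) with 0.01% Triton X-100 to counter colloidal aggregation. Activity was the AMC fluorescence increase over 60 s after adding 2 uM Z-FR-AMC at pH 5.5.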
MARV entry inh = blocks Marburg virus binding to or entry into cells; 300,000 tested, 1.8% active; Potency, µM (series often up to 37.8 µM), for the others: at the highest dose activity change, negative = inhibition, hits mostly inhibitors; Marburg virus pseudotyped entry inhibition, cell reporter; control for the full effect not named in the record; about a third of the inactives were read at about 46 µM; active = well fitted inhibition curve with a large enough effect; inconclusive = small, poorly fitted or top-dose-only effect, or effect the other way; inactive = flat fitted curve, though single readings scatter; tested in HEK293 cells; about a fifth of its hits are not listed in these tables; also: % is scaled to controls: 0 for no effect and ±100 for the full control effect; luciferase read-out
Lassa entry inh = Lassa virus entry inhibition; Lassa virus pseudotype entry inhibition, cell reporter; control for the full effect not named in the record; Potency, µM (series often up to 37.9 µM), for inactives: top-dose activity change, negative = inhibition, actives largely listed as inhibitors; 300,000 tested, 1.2% active; AID 540256; active means well fitted inhibition curve with a large enough effect; inconclusive means small, poorly fitted or top-dose-only effect, or effect the other way; inactive means flat fitted curve, though single readings scatter; tested in HEK293 cells; also: % is scaled to controls: 0 for no effect and ±100 for the full control effect; nearly all actives have a fitted effect of over 50% in size; luciferase read-out
NS1 inh = influenza NS1 inhibition | AID 2326 | 270,000 tested, 0.4% active | S. cerevisiae slowed by influenza A NS1, growth recovery by OD600 | Potency, µM (series often up to 46.1 µM), without a hit: at the top dose activity, positive = more growth; also: actives are rising curves; nearly all actives have a fitted effect of over 50% in size
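Read-out: OD600 growth recovery of NS1-expressing budding yeast. Cells grown overnight at 30C in -URA glucose medium, washed, resuspended and diluted 1:100 in 2% galactose assay medium, pH 6.0. Same strain lacking NS1 served as positive control.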
2A StopGo = lowers the luciferase signal of an FMDV 2A StopGo reporter; human cells with a luciferase reporter of 2A StopGo recoding; control for the full effect not named in the record; Potency, µM (highest dose often 57.9 µM), without a hit: at the top dose signal change, negative = less light; 410,000 tested, 1.2% active; AID 1159524; active = well fitted falling curve with a large enough effect; inconclusive = small, poorly fitted or top-dose-only effect; inactive = no such curve, though single readings can be large or run the other way; tested in HEK293T cells; also: % is scaled to controls: 0 for no effect and ±100 for the full control effect; nearly all actives have a fitted effect of over 45% in size; luciferase light after 4 h
Cruzain noTriton = inhibitors of Trypanosoma cruzi cruzain without detergent. P25779. purified cruzain, Z-FR-AMC fluorescence, no detergent. Potency, µM, inactives show max response, negative = inhibition, hits mostly inhibitors. 200,000 tested, 2.3% active; active = well fitted curve in the direction sought with a large enough effect; inconclusive = small, poorly fitted or top-dose-only effect, or another doubt; inactive = no such curve, though single readings can be large; an effect the other way counts as inactive or inconclusive;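 also: plate controls were enzyme without inhibitor for no effect and buffer without enzyme for full effect; nearly all actives have a fitted effect of over 40% in size; top concentration of the series not given in the record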
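Detergent-free condition (0.00005% Triton X-100) in acetate buffer pH 5.5 with DTT. 1.5 nM enzyme and compound were pre-mixed 15 min, then 2 uM Z-FR-AMC substrate added; reaction progress from fluorescence change between first and third reads (60 s).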
SARS PLP yeast = inhibitors of SARS-CoV papain-like protease in yeast; S. cerevisiae expressing SARS-CoV PLpro, growth rescue; control for the full effect not named in the record; Potency, µM (doses to about 32.9 µM), for the others: at the highest dose activity, positive = growth rescue; 330,000 tested, 0.19% active; AID 485353; also: 0% is about no effect; nearly all actives have a fitted effect of over 55% in size; growth read by luminescence after 48 h
RE007 growth inh = less growth of the S. pombe RE007 Vpr strain; S. pombe RE007 Vpr strain, BacTiter-Glo ATP luminescence, 24 h; control for the full effect not named in the record; Potency, µM (series often up to 92.2 µM), without a hit: top-dose activity change, negative = less growth; 360,000 tested, 0.21% active; AID 651644; active = well fitted falling curve with a large enough effect; inconclusive = small, poorly fitted or top-dose-only effect; inactive = no such curve, though single readings can be large or run the other way;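 also: % is scaled to controls: 0 for no effect and ±100 for the full control effect; nearly all actives have a fitted effect of over 50% in size; the assay follows cell death caused by Vpr and the record does not say whether a fall means rescue or toxicity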
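Fission yeast strain RE007, carrying one chromosomally integrated HIV-1 vpr copy, was seeded at OD 0.01 in PMG+AL medium with 23 nL pinned compound. After 24 h at 30 °C and 99% humidity, viability was read by BacTiter-Glo luminescence.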
* marks the source's active call; other numbers are inactive results; ? = inconclusive; . = not tested or not shown; & = joins results of further samples; [ ] = remark or other dose. Unless noted, calls follow the shape of the dose curve; as a rule, active means well fitted rising curve with a large enough effect; inconclusive means small, poorly fitted or top-dose-only effect; inactive means no such curve, though single readings can be large or run the other way. Potency is read from the fitted curve at half-maximal effect. An unsorted share of the library; 4.7% or so of the library scored in one or more.

Compound	Cruzain Triton	MARV entry inh	Lassa entry inh	NS1 inh	2A StopGo	Cruzain noTriton	SARS PLP yeast	RE007 growth inh
CC1=NN(c2ccccc2)C(=O)/C1=C\c1cn(-c2ccccc2)nc1C	.	2%[46.1 µM]	1%[46.1 µM]	.	19%	.	3%	11%
CC(Oc1ccc(Br)cc1Cl)C(=O)Nc1ccncc1 (configuration not stated)	.	.	.	-95%	?	.	-13%	-13%
Cc1nnc(NC(=O)CSCc2ccccc2)s1	2.3%	.	.	26%	-8%	-9%	-2%	3%
CCN(CC)c1ccc2c(c1)CCCN2	-8.7%	.	.	4%	.	-6%	13µM*	.
O=c1c2ccccc2[nH]c2ccc(F)cc12	.	2%[46.1 µM]	7%	.	-10%	.	-22%	-16%
CC(C)CC(=O)c1c[nH]c(C(=O)NCC2CCCO2)c1 (configuration not stated)	5.1%	29%	-4%	-4%	2%	-3%	-15%	13%
CCc1nnc(NC(=O)CSc2nnc(-c3ccc(NS(=O)(=O)c4ccccc4)cc3)o2)s1	-3.5%	?	18%	-27%	-5%	14%	7%	-1%
COc1ccc(CCN(C(=O)/C=C/C(=O)O)C2CC(=O)N(c3ccccc3)C2=O)cc1 (configuration not stated)	.	?	19%	1%	-10%	.	-2%	5%
CCOC(=O)N1CCN(C(=O)c2cc(Cl)c(Cl)cc2C(=O)O)CC1	-11%	17%	19%	-2%	-4%	16%	0%	10%
CC(C)c1ccc(-c2nc3ccccc3s2)cc1	.	?	?	-1%	0%	.	-1%	-27%
O=C(NCc1ccc2c(c1)OCO2)C1CCC(=O)N1C1CCCC1 (configuration not stated)	.	-6%	-4%	.	-16%	.	-6%	15%
Cc1cccc(CSc2cn(CC(=O)N3CCCCCC3)c3ccccc23)c1	-8.6%	.	?	.	25%	4%	.	.
CCOc1ccc(NC(=O)CCCc2nc(-c3cccc(OC)c3)no2)cc1	-6.7%	0%[46.1 µM]	13%[46.1 µM]	.	-8%	-8%	.	.
O=C(COc1ccc(F)cc1)N1CCc2ccccc2C1	.	21%	?	-6%	29%	.	-2%	1%
CCCCc1c(C)nc2c(OC)cccc2c1SCC(=O)O	.	1%[46.1 µM]	19%[46.1 µM]	-1%	-15%	.	2%	20%
CCOc1ccc(CN2CCNC(=O)C2CC(=O)NCC2CCOCC2)cc1 (configuration not stated)	.	?	-2%	1%	-12%	.	?	-12%
CCn1c(SCC(=O)NC(C)(C)C)nnc1-c1ccncc1	.	-13%[46.1 µM]	-3%[46.1 µM]	3%	9%	.	1%	-15%
COCCN(C(=O)CCC(=O)Nc1ccccn1)C(C(=O)NC(C)C)c1ccc(Cl)cc1 (configuration not stated)	.	14%[46.1 µM]	-4%	2%	5%	.	2%	8%
COc1ccc(NC(=O)C(c2ccc(OC)cc2)N(C)C(=O)Cc2cccs2)cc1 (configuration not stated)	-4.8%&-0.4%	?	?	-13%	-1%&-6%	-7%&3%	11%	6%
CC(=O)NC1C(OCc2ccccc2)OC2COC(C)(C)OC2C1O (configuration not stated)	.	10%[46.1 µM]	21%	-1%	-5%	.	1%	8%
Cc1ccc(C(=O)N/C(=C/c2ccco2)C(=O)NCc2ccco2)cc1	.	-25%[46.1 µM]	.	20%	12%	.	0%	-5%
COc1ccccc1N1C(=O)C2C(C(=O)c3ccccc3)=NN(c3ccccc3OC)C2C1=O (configuration not stated)	.	0%	-2%	-9%	-23%	.	1%	-4%
COc1cc(NC(=O)c2noc3c2CC(C)CC3)c(OC)cc1Cl (configuration not stated)	-0.2%	.	-3%[46.1 µM]	.	4%	2%	.	.
COc1ccc(S(=O)(=O)N2CCOCC2)cc1NC(=O)C1COc2ccccc2O1 (configuration not stated)	.	?	?	.	-12%	.	-1%	-3%
Cn1c(=O)c2c(nc(N3CCOCC3)n2CCNC2=NCCC2)n(C)c1=O	.	-4%	0%	.	4%	.	.	-9%

(cont.)
Compound	Cruzain Triton	MARV entry inh	Lassa entry inh	NS1 inh	2A StopGo	Cruzain noTriton	SARS PLP yeast	RE007 growth inh
Cc1cc(C)c(NC(=O)CSc2nncn2-c2cccnc2)c(C)c1	.	-5%[46.1 µM]	10%	-1%	-2%	.	2%	-2%
CCOC(=O)CNc1c(-c2ccc(O)cc2)nc2ccccn12	-18%	10%	12%	-4%	7%	-14%	-3%	4%
COc1ccc(CCNC(=O)c2cc3c(=O)n(C)c4cc(Cl)ccc4c3s2)cc1OC	-0.8%	21%[46.1 µM]	?	.	-5%	-16%	.	.
CCCn1nc(Oc2nc(NCC)nc(NCC)n2)ccc1=O	6.7%	-4%	-3%	-3%	-2%	0%	-3%	13%
CCOc1cc(C2NC(=O)NC2=O)ccc1O (configuration not stated)	.	22%[46.1 µM]	?	3%	-6%	.	-2%	8%
O=C1NC(c2ccccc2)(C(F)(F)F)SC2=CCCCCN12 (configuration not stated)	-5.7%	-6%	4%	-3%	-28%	-26%	18%	-8%
COCc1c(Br)c(C)nc(OCC(=O)O)c1C#N	4.4%	3%	0%	11%	-13%	-6%	4%	-1%
COc1ccc(S(=O)(=O)N2CCc3ccccc3C2)cc1	.	?	-8%[46.1 µM]	-7%	-9%	.	0%	2%
COc1ccc(NC(=O)c2cc(Br)c(Br)s2)cn1	.	-4%[46.1 µM]	.	.	10%	.	-26%	-20%
Cc1ccc2nc(N(CCN(C)C)C(=O)c3cc(Cl)sc3Cl)sc2c1	-0.6%	8%	?	-4%	-3%	-5%	-5%	-10%
O=C(NCCc1ccc(F)cc1)c1cc([N+](=O)[O-])ccc1N1CCOCC1	.	5%	-13%	.	-21%	.	1%	-23%
NC(CSS(=O)(=O)O)=NCCC12CC3CC(CC(O)(C3)C1)C2	-6.1%	?	-1%	4%	-5%	-3%	-2%	0%
Cn1c(Cc2ccccc2)nnc1SCC(=O)N1CCCCC1	-0.9%	14%	-19%	-7%	15%	10%	0%	9%
CCCCCN(C(=O)CCC(=O)OCC(=O)N1CCCC(C)C1)c1c(N)n(CCCC)c(=O)[nH]c1=O (configuration not stated)	.	9%	29%	4%	-13%	.	-1%	19%
Cc1cc(C(=O)Nc2nnc(C(F)(F)F)s2)cs1	.	-22%[46.1 µM]	?	-91%	13%	.	-2%	-26%
CCc1ccc(N2CC(C(=O)NC3CC3)CC2=O)cc1 (configuration not stated)	.	12%	13%	-3%	3%	.	9%	8%
CSc1ccc(CNC(=O)CN2C(=O)C3CCCCN3c3ccc(C(=O)N4CCCC4)cc32)cc1 (configuration not stated)	-3.0%	.	-1%[46.1 µM]	.	-2%	2%	.	.
COc1ccc(C2=NN(C(=O)CCC(=O)O)C(c3ccccc3)C2)cc1 (configuration not stated)	.	.	.	5%	-5%	.	1%	5%
CC(=O)Nc1nnc(SCC(=O)N2CCc3ccccc32)s1	.	-2%[46.1 µM]	-8%[46.1 µM]	0%	9%	.	-1%	5%
CCCCn1c(N)c(N(CCOC)C(=O)COC(=O)Cc2cccc(OC)c2)c(=O)[nH]c1=O	.	-9%	-18%	.	-3%	.	1%	-19%
CC(=O)Nc1ccccc1OCc1cc(=O)n2c(C)csc2n1	-1.5%	-15%[46.1 µM]	-6%[46.1 µM]	.	-1%	-5%	.	.
CCN1CCN(c2nc3c(C)cccn3c(=O)c2/C=C(\C#N)S(=O)(=O)c2ccc(Cl)cc2)CC1	.	.	.	2%	-5%	.	0%	-11%
COc1ccc(CC(=O)NCC(=O)NCc2cc(=O)n(C)c(=O)n2C)cc1	.	.	.	16%	2%	.	0%	3%
Nc1ccc2nc(-c3ccc(Cl)cc3)[nH]c2c1	?	.	.	-10%	-10%	20µM*	-27%	-28%
O=C(CSc1nccc(-c2cccs2)n1)Nc1ccccc1	.	.	.	-3%	-4%	.	-2%	-3%

(cont.)
Compound	Cruzain Triton	MARV entry inh	Lassa entry inh	NS1 inh	2A StopGo	Cruzain noTriton	SARS PLP yeast	RE007 growth inh
N#Cc1cc([N+](=O)[O-])ccc1NC(=O)COC(=O)C1CC2CCCC(C1)C2=O (configuration not stated)	.	?	17%	.	-13%	.	-5%	-12%
CCNC(=O)COC(=O)c1cc(-c2ccccc2)nn1-c1ccccc1	.	-13%[46.1 µM]	2%	.	-17%	.	6%	14%
CN(C)C(=O)Oc1cccc(NC(=O)N2CCOCC2)c1	-1.0%	4%	-1%	2%	-8%	-11%	25%	-2%
O=C(c1ccc2c(c1)OCO2)N(c1ccccc1)C1C=CS(=O)(=O)C1 (configuration not stated)	5.7%	-12%	-14%	-4%	-21%	-16%	1%	-7%
CCOC(=O)C1C(=O)OC2(CCCCC2)C1C(=O)OCC (configuration not stated)	-0.4%	8%	8%	16%	.	-6%	-2%	5%
COc1cccc(C=NCCNC(=O)c2nonc2N)c1O	2.8%	-1%&-1%[46.1 µM]	1%	-5%	-2%	-8%	-4%	0%
Cc1ccc(OCC(=O)NCCN2CCCC2)cc1	-3.3%	8%	-22%	4%	5%	-7%	5%	-4%
COc1ccc(Cl)cc1C(=O)Nc1nc(C)cc(C)n1	.	.	.	0%	-8%	.	-2%	-15%
Cc1ccc(-c2c[n+](CC(=O)c3ccc(Br)cc3)c3n2CCCCC3)cc1	.	10µM*	?	.	?	.	0%	3%
CNC(=O)CN1C(=O)NC2(CCc3ccccc3C2)C1=O (configuration not stated)	.	?	7%	.	-16%	.	0%	-2%
Cc1ccc(OCC(=O)Nc2ccccc2-c2ccccc2)cc1	-5.7%	?	3%	-19%	.	-3%	5%	-3%
COc1ccc(N(C(=O)C2COc3ccccc3O2)C(C(=O)NC2CCCCC2)c2ccccc2)cc1OC (configuration not stated)	-3.9%	?	-26%	?	-9%	9%	9%	4%
CCC1CN(C(=O)N2CCC(C(=O)NCCC3=CCCCC3)CC2)c2cc(C)ccc2O1 (configuration not stated)	-6.1%	.	-20%[46.1 µM]	.	?	10%	.	.
COC(=O)c1ccc(S(=O)(=O)N2CCCCCC2)n1C	.	.	.	-1%	2%	.	2%	5%
COc1ccc(N=C2SC(C(=O)N3CCN(c4ccccc4)CC3)CC(=O)N2C)cc1 (configuration not stated)	.	.	.	0%	?	.	-1%	2%
